Screening data as filed in PubChem.
VACV mCherry inh: vaccinia inhibition (mCherry reporter) | 310,000 tested, 0.63% active | Potency, µM (doses to about 36.5 µM), without a hit: at the highest dose activity change, negative = inhibition, actives largely listed as inhibitors | Vaccinia virus mCherry reporter infection, fluorescence; about a quarter of the inactives have no number; active = well fitted inhibition curve with a large enough effect; inconclusive = small, poorly fitted or top-dose-only effect; inactive = no such curve, though single readings can be large or run the other way; tested in A549 cells; also: nearly all actives have a fitted effect of over 35% in size; inactives centre near -10
Vaccinia Venus: vaccinia inhibition (Venus reporter); Vaccinia virus Venus reporter expression, fluorescence; Potency, µM (titrated, usually from 36.5 µM), for the others: at the top dose activity change, negative = inhibition, hits mostly inhibitors; 330,000 tested, 0.46% active; active means well fitted inhibition curve with a large enough effect; inconclusive means small, poorly fitted or top-dose-only effect; inactive means no such curve, though single readings can be large or run the other way; tested in A549 cells; also: nearly all actives have a fitted effect of over 30% in size; inactives centre near -10
* = called active by the depositor; i = inactive; ? = inconclusive; nt = not tested or not shown; & = joins results of further samples; [ ] = dose if it differs, or a comment. % is scaled to controls: 0 for no effect and ±100 for the full control effect; potency is read from the fitted curve at half-maximal effect.

Each structure is followed by: VACV mCherry inh	Vaccinia Venus
N#CC1=C(N)Oc2c(c(=O)sc3ccccc23)C1c1ccncc1 (configuration not stated)
    -12%	-20%
COC(=O)c1cc(Oc2ccc(C(=O)OC)cc2N)cc(C(=O)OC)c1
    -13%	-9%
CSc1ccc(S(=O)(=O)NCCCn2ccnc2)cc1
    -2%	-9%
CC(C)Oc1ccc(CNC(=O)Cn2ncn3nc(-c4cccs4)cc3c2=O)cc1
    -11%	-19%
O=c1c2ccccc2cnn1Cc1n[nH]c(=S)n1-c1ccccc1F
    -14%	-5%
Cc1nnc(SCC(=O)Nc2nccs2)o1
    -1%	-9%
CCOC(=O)CNC(=O)CSc1nnnn1-c1cc(C)ccc1C
    nt	-17%
COC(=O)c1ccccc1NC(=O)C1CCCN(c2nnc(C)c3c(C)n(-c4ccccc4)nc23)C1 (configuration not stated)
    -10%	-3%
Cc1ccc(NC(=O)CSc2nnc(N)s2)c([N+](=O)[O-])c1
    -3%	-9%
COc1ccc(COC(=O)NNC(=O)c2ccccc2Cl)cc1
    nt	-11%
N#CCCn1cc(C(=O)Nc2ccc([N+](=O)[O-])cc2)c(-c2cccs2)n1
    -23%	-18%
CCOC(=O)N1CCC(NC(=O)c2cccnc2SC)CC1
    -15%[1.46 µM]	-17%
COc1ccc(C2c3[nH]c4ccccc4c3CCN2C(=O)CCC2CCCC2)cc1 (configuration not stated)
    -5%	14%
Cc1ccc2nc(C(=O)N3CCc4c([nH]c5ccccc45)C3c3ccccn3)cn2c1 (configuration not stated)
    -9%	-10%
CCOC(=O)C1C(=O)NC(c2ccccc2)=NC1c1ccc(C(C)C)cc1 (configuration not stated)
    -26%	?

Compound profiles (already shown).
CSc1ccc(S(=O)(=O)NCCCn2ccnc2)cc1 in the list: VACV mCherry inh: -2%; Vaccinia Venus: -9%
Cc1nnc(SCC(=O)Nc2nccs2)o1 in the list: VACV mCherry inh: -1%; Vaccinia Venus: -9%

(next part)
Each structure is followed by: VACV mCherry inh	Vaccinia Venus
CCOc1ccc(N(C(=O)c2ccc(OC)cc2)S(=O)(=O)c2ccc3c(c2)n(C)c(=O)n3C)cc1
    -11%	-7%
NC(=O)C1CCN(c2oc(-c3ccccc3)nc2S(=O)(=O)c2ccc(Br)cc2)CC1
    -10%	-13%
O=C(CCSCc1ccccc1Cl)N1CCN(c2ccc(F)cc2)CC1
    -16%	-14%
CCNC(=O)NC(=O)C(C)OC(=O)CCS(=O)(=O)c1ccc(C)cc1 (configuration not stated)
    -2%	-12%
CC(C(=O)Nc1cccc(C#N)c1)N(C)CCOc1ccccc1 (configuration not stated)
    ?	-8%
CC1=C(CC(=O)NCC(=O)NCC(=O)O)c2cc(F)ccc2/C1=C/c1ccc(S(C)=O)cc1 (configuration not stated)
    -5%	-8%
CN(Cc1ccc(F)cc1)C(=O)c1ccc(NC(=O)CC2SC(N3CCCC3)=NC2=O)cc1 (configuration not stated)
    -3%	-19%
Cc1ccc(-c2csc(C(C#N)=C3CCCC3)n2)cc1
    nt	-6%
COc1ccc(CNC(=O)C2CC=CCC2C(=O)O)cc1OC (configuration not stated)
    nt	-16%
COc1ccc(-c2cn3nc(N4CCCC(C(=O)Nc5ccccc5OC)C4)sc3n2)cc1 (configuration not stated)
    -28%	-25%
O=C(NCc1ccc2c(c1)OCO2)Nc1ccc2ccccc2c1
    -8%	-8%
Cc1ccc(OCC(=O)NC(=S)Nc2ccccn2)c(Br)c1
    i	-10%
CSc1nc(N2CCOCC2)cc(N2CCOCC2)n1
    -12%	-11%
COc1ccc(/C=C/C(=O)Nc2cc(C(F)(F)F)ccc2Cl)cc1OC
    -11%	-26%
CC(C)Cc1nc2sc3c(=O)[nH]cnc3c2c2c1CCC2
    -1%	-18%
CCOc1ccccc1C(=O)NCC(c1ccc(N(C)C)cc1)N1CCCC1 (configuration not stated)
    -16%	-16%
CN(C)c1ccc(/C=C/C(=O)c2ccc3c(c2)OCCO3)cc1[N+](=O)[O-]
    i	6%
COCCN(C(=O)C(C)C)c1nnc(-c2ccc(C)cc2)s1
    -10%	-16%
O=S(=O)(c1cccs1)n1nnc2ccccc21
    -2%[1.46 µM]	-11%
COc1ccc(C)cc1C(=O)CCC(=O)NC1CCCCC1
    i	-16%
Cc1ccc([C@H]2C[C@H](O)[C@@H](n3cc(COC(=O)c4ccccc4)nn3)CN2C(=O)C2CCCCC2)cc1
    i	-27%
NS(=O)(=O)c1ccc(CCNCC(=O)NC2CC2)cc1
    i	-8%
COc1ccc(OCCNC(=O)C2(C)CCN2Cc2ccc3ccccc3c2)cc1 (configuration not stated)
    -12%	-28%
Cc1cccc(Cn2c(C)c(C)c3cc(C(=O)NCc4ccc(C)o4)ccc32)c1
    -30%	-16%
CCO[C@@H]1OC(C(=O)N2CCOCC2)=C[C@H](c2ccc(Br)cc2)[C@H]1CCCO
    -2%	-21%
Cc1csc(=O)n1CC(=O)OCC(=O)NCc1ccc(F)cc1
    -14%	-12%
O=c1cc(CN2CCN(S(=O)(=O)/C=C/c3ccccc3)CC2)c2ccc(O)cc2o1
    -9%	-16%
COc1ccc(CCNC(=O)Cc2c(C)c3c(cc(C)c4c(C)coc43)oc2=O)cc1OC
    -9%	-6%
N#Cc1ccc(/C=C/C(=O)c2ccccc2)cc1
    -1%	-14%
COC(=O)c1ccc(C(=O)Nc2ccc3nc(-c4cccnc4)[nH]c3c2)cc1
    -13%	1%
CCOC(=O)c1nc(Nc2ccc(Cl)cc2)c2c(C)noc2n1
    -5%	-3%
NS(=O)(=O)c1ccc(CCNC(=O)COC(=O)/C=C/c2ccc(OC(F)F)cc2)cc1
    i	-9%
COc1ccc(C(=O)N(c2ccc(OC)cc2)S(=O)(=O)c2cccs2)cc1
    -24%	-13%
COc1cc(C2C(=O)N(C3CCCCCC3)CC(=O)N2CCC2=CCCCC2)ccc1OC(C)C (configuration not stated)
    -12%	-11%
COc1cccc(CNn2cnnc2)c1O
    4%	1%
COC(=O)c1ccc(NC(=O)CCN2CCN(Cc3ccccc3)CC2)cc1
    i	-11%
CCOC(=O)c1sc(NC(=O)CSc2nc3c(c(=O)n2-c2ccc(C)cc2)SCC3)c(C(=O)OCC)c1C
    -10%	-18%
Cc1nc(CNS(=O)(=O)c2ccc3c(c2)CCCC3)cs1
    ?	-20%
OC(CN1CCN(Cc2ccccc2)CC1)c1ccccc1 (configuration not stated)
    ?	-8%
COc1cc2oc(=O)cc(-c3ccc(-c4ccc(CO)cc4)cc3)c2c(OC)c1OC
    4%	-13%
O=C(OCc1ccccc1)c1cccnc1Cl
    -6%	1%
Cc1ccc(C2C(C(=O)O)c3ccccc3C(=O)N2C)o1 (configuration not stated)
    -17%	-14%
Fc1ccc(CN2CCSCC2)cc1Br
    -19%	-13%
CC(C)C(=O)Nc1ccc(C(=O)NNC(=O)c2cccs2)cc1
    i	-11%
CCOc1cc(/C=N/NC(=O)CSc2nncn2C)ccc1OCc1ccccc1
    -13%	-3%
COc1cccc(C2C(C(=O)c3cccs3)=C(O)C(=O)N2CCN(C)C)c1OC (configuration not stated)
    -18%	-13%
Nc1nnc(COc2ccc(Br)cc2Br)s1
    i	0%
Cc1cc(C)c2c(N)c(S(=O)c3ccc(C(C)(C)C)cc3)sc2n1 (configuration not stated)
    -15%	?
Cc1nn(C)cc1-c1cc(C(=O)O)c2ccccc2n1
    10%	6%
Cc1ccc(C(=O)N2CCN(Cc3ccccc3)CC2)cc1S(=O)(=O)N1CCOCC1
    -15%	-10%
c1ccc(OCCn2cnc3ccccc32)cc1
    -7%	-8%
COC(=O)c1sccc1-n1cccc1C(=O)N1CCOCC1
    nt	0%
CCC(=O)N1CCN=C1SCc1ccccc1Cl
    i	-10%
COc1ccc(OC)c2c(N)c(C#N)c(C(F)(F)C(F)(F)F)nc12
    i	4%
COc1cccc(CNC(=O)c2c(OC)cc(=O)n3c2CCN(C(=O)c2ccc(C)nc2)CC3)c1
    i	0%
Cc1cc(NC(=O)C(C)SCC(=O)Nc2ccccc2OC(F)F)no1 (configuration not stated)
    -1%	-8%
Cc1ccc(C(=O)OCC(=O)NCCc2ccccc2)cc1S(=O)(=O)N1CCOCC1
    -17%	-10%
CCc1sc(N(C(=O)Cc2ccccc2)c2ccccc2)nc1-c1ccccc1
    -13%	-2%
COc1ccc(CCNc2nc(-c3ccc(Cl)cc3)cc(C(F)(F)F)n2)cc1OC
    -8%	-1%
O=C(O)CC1(CC(=O)N2CCN(CCO)CC2)CCCC1
    -2%	0%

Additional results:
Each structure is followed by: VACV mCherry inh	Vaccinia Venus
O=C(NCC(c1cccnc1)N1CCN(c2ccc(F)cc2)CC1)c1cccc(Cl)c1 (configuration not stated)
    -3%[1.46 µM]	?
Cc1c(N(C)S(=O)(=O)c2cc(C(=O)N3CCCC3)ccc2Cl)c(=O)n(-c2ccccc2)n1C
    i	-4%
COc1ccc2c(Cl)c(C(=O)N/N=C/c3cccnc3)sc2c1
    ?	-12%
CCOC(=O)N1CCN(C(=O)COc2cc(C)c(Cl)c(C)c2)CC1
    -16%	-9%
COCCNC(=O)Cn1c(=O)oc2cc(S(=O)(=O)N3CC(C)CC(C)C3)ccc21 (configuration not stated)
    -5%	-9%
N/C(=N\OC(=O)CCCc1ccccc1)c1cccc([N+](=O)[O-])c1
    -14%	-1%
CCN1C(=O)[C@H]2[C@@H](c3ccc(-c4ccccc4)c(OC)c3)N[C@@](CC(C)C)(C(=O)OC)[C@H]2C1=O
    ?	?
COc1cc(C2NC(=O)NC(c3ccccc3)=C2C(C)=O)cc(Cl)c1OCC(=O)O (configuration not stated)
    -4%	9%
COc1cc(N2CCCC2)c(OC)cc1/C=C(/C#N)c1ccc(F)cc1
    nt	-14%
CN(C)c1ccc(/C=C/c2nc3ccccc3s2)cc1
    -21%&-20%	-19%&38%
CCOC(=O)N1CCN(Cc2c(O)ccc3ccccc23)CC1
    ?	-6%
CCOc1ccc(NC(=O)C2CCCN(c3nnc(-n4c(C)ccc4C)s3)C2)cc1 (configuration not stated)
    -11%	-11%
CCN(CC)C(=O)CSc1nc(C)cc(-c2cccs2)c1C#N
    i	-17%
C[C@@H]1CN([C@@H](C)CO)C(=O)CCCn2nncc2CO[C@H]1CN(C)Cc1ccccc1
    0%	-10%
C[C@H](CO)N1C[C@H](C)[C@H](CN(C)C(=O)Cc2ccncc2)Oc2ncc(Br)cc2C1=O
    ?	8.9µM*
O=C(CC1SCCNC1=O)Nc1ccccc1Cl (configuration not stated)
    i	-2%
S=C(Nc1ccc(Br)cc1)N1CCN(C2CCCCC2)CC1
    i	-14%
Cc1nc(CS(=O)c2ccccc2)cc(N2CCOCC2)n1 (configuration not stated)
    nt	-13%
O=C(NCc1ccc(Cl)cc1Cl)Nc1ccccc1
    -4%	-27%
Cc1cccc(S(=O)(=O)c2cn(Cc3ccc(F)cc3)c3cc(N4CCCCC4)c(F)cc3c2=O)c1
    i	-5%
CCC(=O)N1CCN(c2ccccc2NC(=O)c2cccc(C)c2)CC1
    -10%	-5%
c1ccc(Cc2nnc(Sc3ccccc3)c3ccccc23)cc1
    -15%	-23%
N#CC(c1ccc(Cl)nn1)c1c(F)cccc1Cl (configuration not stated)
    ?	-12%
COC(=O)c1ccccc1Oc1c(F)c(F)nc(N2CCOCC2)c1F
    i	-10%
CCCOc1ccc(C(=O)NCC(c2ccco2)N(C)C)cc1OC (configuration not stated)
    -7%	0%
O=Cc1c(SCCO)nc2ccccn2c1=O
    i	-14%
N=C1S/C(=C\c2ccc(O)cc2)C(=O)N1c1ccc(F)cc1
    -16%	-9%
CCOC(=O)C1CCN(C(=O)CN(c2ccc(Cl)c(C(F)(F)F)c2)S(C)(=O)=O)CC1
    nt	-14%
CCCOc1ccc(N2C(=O)CC(NCc3cccs3)C2=O)cc1 (configuration not stated)
    nt	11µM*
CC(=O)N1CCCc2cc(S(=O)(=O)N3CCC(C(=O)NCCC(C)C)CC3)ccc21
    -4%	-9%
CC(C)COc1ccc(C(=O)Nc2ccccc2[N+](=O)[O-])cc1
    -4%	-18%

Grouped by structure, the entries above with an aryl thioether with sulfur outside any ring (eleven)
Each structure is followed by: VACV mCherry inh	Vaccinia Venus
CSc1ccc(S(=O)(=O)NCCCn2ccnc2)cc1
    -2%	-9%
Cc1nnc(SCC(=O)Nc2nccs2)o1
    -1%	-9%
CCOC(=O)CNC(=O)CSc1nnnn1-c1cc(C)ccc1C
    nt	-17%
Cc1ccc(NC(=O)CSc2nnc(N)s2)c([N+](=O)[O-])c1
    -3%	-9%
CCOC(=O)N1CCC(NC(=O)c2cccnc2SC)CC1
    -15%[1.46 µM]	-17%
CSc1nc(N2CCOCC2)cc(N2CCOCC2)n1
    -12%	-11%
CCOC(=O)c1sc(NC(=O)CSc2nc3c(c(=O)n2-c2ccc(C)cc2)SCC3)c(C(=O)OCC)c1C
    -10%	-18%
CCOc1cc(/C=N/NC(=O)CSc2nncn2C)ccc1OCc1ccccc1
    -13%	-3%
CCN(CC)C(=O)CSc1nc(C)cc(-c2cccs2)c1C#N
    i	-17%
c1ccc(Cc2nnc(Sc3ccccc3)c3ccccc23)cc1
    -15%	-23%
O=Cc1c(SCCO)nc2ccccn2c1=O
    i	-14%
